Screening results deposited in PubChem BioAssay by National Center for Advancing Translational Sciences (NCATS).
TRb-SRC2 inh: inhibitors of human thyroid hormone receptor beta-SRC2 interaction. hit rate 0.065% among 280,000. Potency, µM (doses to about 106 µM), for the others: at the top dose activity change, negative = inhibition, most hits filed as inhibitors. AID 1469. TRbeta-SRC2 peptide binding, fluorescence polarization; receptor liganded with 1 µM T3. P10828;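 also: plate controls were bound peptide for no effect and peptide without receptor for full effect; nearly all actives have a fitted effect of over 50% in size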
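Quantitative HTS by FP: 0.6 uM TRb LBD, 20 nM labeled SRC2 20-mer, 1 uM T3, 5% DMSO; 5 hr ambient incubation; % activity per concentration and potencies from concentration series.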
GLA spleen mod: inhibits or activates alpha-galactosidase in human spleen homogenate; P06280; human spleen homogenate, 4MU-alpha-Gal fluorescence, 40 min; Potency, µM (titrated, usually from 80 µM), for the others: top-dose activity change, negative = inhibition, most hits filed as inhibitors; hit rate 0.008% among 240,000; AID 2107;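 also: 0% = enzyme with vehicle and -100% = no enzyme basal signal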
Target sequence (P06280 32-429 limits assumed): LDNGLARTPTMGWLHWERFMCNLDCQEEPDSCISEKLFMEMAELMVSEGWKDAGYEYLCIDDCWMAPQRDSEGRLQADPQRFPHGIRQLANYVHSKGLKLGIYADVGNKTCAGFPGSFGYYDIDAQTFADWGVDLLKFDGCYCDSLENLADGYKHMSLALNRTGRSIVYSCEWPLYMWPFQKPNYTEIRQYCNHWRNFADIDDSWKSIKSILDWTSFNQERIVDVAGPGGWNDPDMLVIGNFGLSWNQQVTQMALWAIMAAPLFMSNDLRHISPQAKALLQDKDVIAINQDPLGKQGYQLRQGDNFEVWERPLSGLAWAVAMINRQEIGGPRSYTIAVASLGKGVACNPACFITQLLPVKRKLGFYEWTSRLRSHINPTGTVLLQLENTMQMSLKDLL
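Inhibition or activation of alpha-galactosidase in human spleen homogenate is scored by 4-MU fluorescence after 40 min at 37C, pH 5.0, with 1 mM substrate. AC50s come from concentration-response fitted to the Hill equation.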
Epigenetic derep: regulators of epigenetic silencing causing reporter derepression in mouse cells. murine LDR cells, GFP reporter derepression, 30 h. hit rate 0.2% among 280,000. Potency, µM (top dose mostly 53.9 µM), inactives show top-dose GFP activation, hits mostly activators; also: % of control where 0% means no effect; nearly all actives have a fitted effect of over 60% in size
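Murine LDR cells carrying a silenced, genomically integrated CMV-driven GFP reporter were exposed to compound for 30 hours at 37 C. After PBS washes, GFP-positive cells (20–120 um objects) were counted by laser-scanning microplate cytometry.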
TexasRed fluor: Texas Red fluorescence interference in TRb-SRC2 counter-screen. TRb/SRC2 Texas Red total fluorescence interference. Potency, µM (top dose mostly 106 µM), inactives show at the highest dose fluorescence change, negative = quenching. hit rate 0.29% among 280,000; active = well fitted curve in either direction with a large enough effect; inconclusive = small, poorly fitted or top-dose-only effect; also: % is scaled to controls: 0 for no effect and ±100 for the full control effect
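Flags fluorescent or light-absorbing compounds by total fluorescence, S + 2P, at 555 nm excitation and 632 nm emission. Mixture: 20 nM Texas Red SRC2 peptide, 0.6 uM human TRb LBD, 1 uM T3, 5% DMSO; compound exposure 5 h at ambient temperature.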
NPSR antagonist: neuropeptide S receptor (human) antagonism, cAMP. Q6W5P4. CHO-NPSR cells, cAMP TR-FRET, antagonist mode. Potency, µM (highest dose often 38.3 µM), without a hit: at the top dose activity change, negative = inhibition, hits mostly inhibitors. hit rate 1% among 220,000. AID 1461; also: % is scaled to controls: 0 for no effect and ±100 for the full control effect; nearly all actives have a fitted effect of over 50% in size; many of its hits are not listed in these tables
Target sequence (Q6W5P4 whole entry, looked up): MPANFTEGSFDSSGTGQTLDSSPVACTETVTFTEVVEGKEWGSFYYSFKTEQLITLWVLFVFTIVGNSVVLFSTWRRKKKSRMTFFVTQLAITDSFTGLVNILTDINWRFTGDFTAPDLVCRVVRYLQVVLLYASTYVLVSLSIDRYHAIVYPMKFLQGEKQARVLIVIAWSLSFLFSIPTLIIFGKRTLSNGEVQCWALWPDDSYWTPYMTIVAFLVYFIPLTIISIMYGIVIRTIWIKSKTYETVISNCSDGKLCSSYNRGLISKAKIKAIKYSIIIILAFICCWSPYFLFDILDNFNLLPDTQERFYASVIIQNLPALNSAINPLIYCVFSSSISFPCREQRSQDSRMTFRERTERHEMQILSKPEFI
Active calls of the source: *; ? = inconclusive; · = not tested or not shown; & = joins results of further samples; [ ] = another dose, or the depositor's remark. Unless noted, calls follow the shape of the dose curve; as a rule, active = well fitted curve in the direction sought with a large enough effect; inconclusive = small, poorly fitted or top-dose-only effect, or another doubt; inactive = no such curve, though single readings can be large; an effect the other way counts as inactive or inconclusive. Potency is read from the fitted curve at half-maximal effect. An excerpt. The share of hits here may be higher or lower than overall.

Below each SMILES: TRb-SRC2 inh | TexasRed fluor | Epigenetic derep | GLA spleen mod | NPSR antagonist
1: CN(C)c1ccc(/C=C2/C(=O)Nc3ccccc32)cc1
 : -4% | -8% | ? | -11% | ·
2: CC(=O)Oc1ccc(C2(c3ccc(OC(C)=O)cc3)C(=O)Nc3ccccc32)cc1
 : 3%&13% | 2%&0% | 0.7% | 12% | ·
3: CCC(=O)c1c(O)cc(O)cc1O
 : 6% | -2% | 2.7% | 9% | ·
4: Cc1c(C)c2c(c(C)c1O)CCC(C)(CCCC(C)CCCC(C)CCCC(C)C)O2 (stereo not given)
 : 0% | 0% | -0.5% | 7% | ·
5: CC(C)(C)c1ccc([C@@H](O)CCCN2CCC(C(O)(c3ccccc3)c3ccccc3)CC2)cc1
 : -3%[53 µM] | -4%[53 µM] | 1.1%[16.9 µM] | -1%[29.1 µM] | ·
6: O=C(CCCN1CCN(c2ccccn2)CC1)c1ccc(F)cc1
 : -10%&-8% | 0%&0% | -1.3% | 3% | ·
7: Cc1cc(=O)c2ccccc2[nH]1
 : 1% | -5% | 0.0% | 4% | -7%[46.1 µM]
8: CSc1ccc2c(c1)N(CCC1CCCCN1C)c1ccccc1S2 (stereo not given)
 : 0%&-4%&-4%&0% | -3%&-3%&-1%&-2% | 1.1%&-0.1%&2.1%&2.7% | -2%&1%&6%&-9% | 13µM*
9: O=C(N[C@@H](CO)[C@@H](O)c1ccc([N+](=O)[O-])cc1)C(Cl)Cl
 : 3%[53 µM] | -1%[53 µM] | 1.4%[16.9 µM] | -8%[29.1 µM] | ·
10: NS(=O)(=O)c1cccc2c1c([N+](=O)[O-])cc1nc(O)c(O)nc12
 : 2%&9% | -3%&-5% | -0.1%&1.2% | 5%&-7% | -19%[46.1 µM]
11: c1ccc(CNc2ncnc3ccccc23)cc1
 : -1% | -6% | 2.0% | -3% | 3%[46.1 µM]
12: CCn1nc(C(=O)O)c(=O)c2cc3c(cc21)OCO3
 : 1% | -3% | -0.3% | -1% | 11%
13: O=Cc1ccccc1Cl
 : 1% | -2% | · | 7% | ·
14: NNC(=O)c1ccncc1
 : -4% | -2% | 1.0% | 4% | 2%
15: CC(=O)OCC(=O)[C@@]1(O)[C@H](C)C[C@H]2[C@@H]3CCC4=CC(=O)C=C[C@]4(C)[C@@]3(F)[C@@H](O)C[C@@]21C
 : 6% | 0% | 17% | 8% | -12%
16: N#CC(=C(\N)Sc1ccccc1N)/C(C#N)=C(/N)Sc1ccccc1N
 : 3% | -1% | 1.1% | -9% | ?
17: Nc1ccn([C@@H]2CS[C@H](CO)O2)c(=O)n1
 : 4%&-5%&-3% | -1%&1%&-4% | -0.1%&-1.1% | -1%&-8% | 8%
18: CSc1nc2ccccc2s1
 : -3% | -3% | 0.1% | 8% | 6%
19: CC(C)(C)OC(=O)NC(Cc1ccccc1)C(=O)O (stereo not given)
 : 0% | -3% | 1.4% | 3% | 12%[7.67 µM]
20: CC(C)c1c(C(=O)Nc2ccccc2)c(-c2ccccc2)c(-c2ccc(F)cc2)n1CC[C@@H](O)C[C@@H](O)CC(=O)O
 : -12% | ? | 3.1% | 30% | ·

Copied from the listing, 11 compounds:
Below each SMILES: TRb-SRC2 inh | TexasRed fluor | Epigenetic derep | GLA spleen mod | NPSR antagonist
1: CN(C)c1ccc(/C=C2/C(=O)Nc3ccccc32)cc1
 : -4% | -8% | ? | -11% | ·
2: CC(=O)Oc1ccc(C2(c3ccc(OC(C)=O)cc3)C(=O)Nc3ccccc32)cc1
 : 3%&13% | 2%&0% | 0.7% | 12% | ·
3: CCC(=O)c1c(O)cc(O)cc1O
 : 6% | -2% | 2.7% | 9% | ·
4: Cc1c(C)c2c(c(C)c1O)CCC(C)(CCCC(C)CCCC(C)CCCC(C)C)O2 (stereo not given)
 : 0% | 0% | -0.5% | 7% | ·
5: CC(C)(C)c1ccc([C@@H](O)CCCN2CCC(C(O)(c3ccccc3)c3ccccc3)CC2)cc1
 : -3%[53 µM] | -4%[53 µM] | 1.1%[16.9 µM] | -1%[29.1 µM] | ·
6: O=C(CCCN1CCN(c2ccccn2)CC1)c1ccc(F)cc1
 : -10%&-8% | 0%&0% | -1.3% | 3% | ·
7: Cc1cc(=O)c2ccccc2[nH]1
 : 1% | -5% | 0.0% | 4% | -7%[46.1 µM]
8: CSc1ccc2c(c1)N(CCC1CCCCN1C)c1ccccc1S2 (stereo not given)
 : 0%&-4%&-4%&0% | -3%&-3%&-1%&-2% | 1.1%&-0.1%&2.1%&2.7% | -2%&1%&6%&-9% | 13µM*
9: O=C(N[C@@H](CO)[C@@H](O)c1ccc([N+](=O)[O-])cc1)C(Cl)Cl
 : 3%[53 µM] | -1%[53 µM] | 1.4%[16.9 µM] | -8%[29.1 µM] | ·
10: NS(=O)(=O)c1cccc2c1c([N+](=O)[O-])cc1nc(O)c(O)nc12
 : 2%&9% | -3%&-5% | -0.1%&1.2% | 5%&-7% | -19%[46.1 µM]
11: c1ccc(CNc2ncnc3ccccc23)cc1
 : -1% | -6% | 2.0% | -3% | 3%[46.1 µM]

Other compounds.
Below each SMILES: TRb-SRC2 inh | TexasRed fluor | Epigenetic derep | GLA spleen mod | NPSR antagonist
21: O=C(O)c1cc(-c2ccncc2)nc2ccc(F)cc12
 : -5% | 0% | 1.0% | -1% | 11%[46.1 µM]
22: NCC(O)c1ccc(O)c(O)c1 (stereo not given)
 : 2% | 2% | -0.1% | -6% | -21%[46.1 µM]
23: CCCCC(=O)N(Cc1ccc(-c2ccccc2-c2nn[nH]n2)cc1)C(C(=O)O)C(C)C (stereo not given)
 : 4% | -6% | -1.3% | -12% | ·
24: CCN(CC)CC#CCOC(=O)[C@@](O)(c1ccccc1)C1CCCCC1
 : -8% | 0% | 2.4%[16.9 µM] | 7%[29.1 µM] | ·
25: Clc1ccc(OCc2cn3ccccc3n2)c2ncccc12
 : 3%[53 µM] | -4%[53 µM] | 1.6% | -15% | -9%
26: O=C(O)Cc1cccc2ccccc12
 : 7%[201 µM] | 0%[201 µM] | · | -10% | ·
27: CC(C)(C)c1ccc(C(O)CCCN2CCC(C(O)(c3ccccc3)c3ccccc3)CC2)cc1 (stereo not given)
 : 6%&8%&1% | 0%&3%&-3% | -3.0%&-1.2%&0.8% | -6%&-7%&17% | ?
28: COc1c(N2C[C@@H]3CCCN[C@H]3C2)c(F)cc2c(=O)c(C(=O)O)cn(C3CC3)c12
 : -5% | 1% | 1.1% | 5% | ·
29: Nc1ccn(C2OC(CO)C(O)C2O)c(=O)n1 (stereo not given)
 : -2%&1% | -2%&-2% | 0.4%&1.6% | 3%&1% | ·
30: O=C1CC[C@@H](C(=O)O)N1
 : 2% | -1% | · | · | ·
31: Nc1nc2c(ncn2COCCO)c(=O)[nH]1
 : 2% | 0% | -4.1% | -3% | -3%
32: Cc1cccc(C)c1OCC(C)N (stereo not given)
 : 4%&-4%&1%&-7% | -3%&-2%&-1%&-2% | -1.2%&-0.2%&0.0% | 6%&5%&20%&-3% | -2%[46.1 µM]
33: NC1CONC1=O (stereo not given)
 : 4%&7% | -1%&-5% | 1.1%&1.3% | 6%&-6% | 10%[46.1 µM]
34: CC(C)NC[C@H](O)c1ccc(O)c(O)c1
 : -1% | 0% | -0.2% | -8% | -4%&6%[46.1 µM]
35: CCN(CC)CCn1c2ccccc2c2cnc(N)c(C#N)c21
 : 0% | -3% | -1.0% | -4% | -10%[46.1 µM]
36: NC(N)=NS(=O)(=O)c1ccc(N)cc1
 : -2% | -4% | -1.0% | -4% | -4%
37: COc1ccc2c3c1OC1CC(O)C=CC31CCN(C)C2 (stereo not given)
 : 10% | -2% | -4.2% | -7% | -17%
38: COc1cc(/C=C/C(=O)CC(=O)/C=C/c2ccc(O)c(OC)c2)ccc1O
 : ? | -13%&-22%&-19%&-18% | ? | 1%&-1%&6%&-9% | ?
